# Screens as filed in PubChem.
# PMP22 txn prim – Cell-based coincidence reporter assay to measure PMP22 gene transcription in S16 Pmp22-F2sN cells - Primary screen; 43,000 compounds, 2% hits; Potency, µM (doses to about 57.5 µM), for inactives: at the highest dose activity change, negative = inhibition, usual class: inhibitors; AID 1508649, 2021; S16 Pmp22-F2sN Schwann cells (luciferase reporters placed in the Pmp22 gene), FLuc/NLuc coincidence luminescence, 24 h; active = clear falling dose curves in both reporters; inconclusive = both reporters move, but less clearly or upward; inactive = either reporter flat; the % is the NLuc reporter signal; also: % is scaled to controls: 0 for no effect and ±100 for the full control effect; some results filed as inactive show a strong effect at the top dose
#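 Transcriptional readout in edited S16(c9) cells: two luciferases reported from the Pmp22 locus, measured in turn after 24 h compound incubation.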
# HTT promoter inh – Primary qHTS for Identification of Small Molecule Inhibitors of Huntingtin Promoter Activity; HEK293 HTT promoter firefly luciferase reporter (activity 0% = vehicle and -100% = no light), 24 h; Potency, µM (titrated, usually from 57.5 µM), for the others: at the highest dose activity change, negative = inhibition, actives largely listed as inhibitors; 48,000 compounds, 0.93% hits; active = well fitted inhibition curve with a large enough effect; inconclusive = small, poorly fitted or top-dose-only effect; inactive = no such curve, though single readings can be large or run the other way; also: nearly all actives have a fitted effect of over 50% in size
#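 HEK293 luciferase promoter-reporter cells (2,500/well) plated 24 h, then compounds added at up to 57.5 uM final for 24 h at 37 °C. Firefly luminescence by Dual-Glo, normalized to vehicle (0%) and zero RLU (-100%).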
# An asterisk follows results filed as active; ? = inconclusive; · = no result given; [ ] = remark or other dose. Potency is read from the fitted curve at half-maximal effect.
# Order of results: PMP22 txn prim | HTT promoter inh
- Cc1cc(C)cc(OCCn2c(C3CC(=O)N(c4ccccc4Cl)C3)nc3ccccc32)c1 (centres undefined)
  ? | ?
- CCCNC(=O)C(C)n1nc(C)c2c(C)n(-c3ccccc3)nc2c1=O (centres undefined)
  -0.2% | -4.9%
- O=C(NCc1cccnc1)C(=O)NCC(c1cccnc1)N1CCN(c2ccccc2)CC1 (centres undefined)
  -1.1% | -32.1%
- Cc1c(CNCc2ccc(Cl)cc2)c(C(=O)O)c(C)n1Cc1ccc(F)cc1
  ? | -28.3%
- COc1ccc(C)cc1NC(=O)c1cc2c(s1)-c1ccccc1SC2
  22.3% | -4.1%
- NC(=O)c1cc(S(=O)(=O)NCc2cccc(Br)c2)cs1
  42.2% | -34.8%
- CCC(Cc1ccccc1)NC(=O)Cn1ncc2c3ccccc3n(Cc3ccccc3)c2c1=O (centres undefined)
  ? | 5.7%
- COc1cc(OC)c(NC(=O)c2nc(-c3ccncc3)no2)cc1Cl
  -11.9% | 22.7%
- CC(C)c1ccc(NC(=O)CSc2nc(=O)n(Cc3cccnc3)c3c2CCC3)cc1
  ? | -13.5%
- O=c1c2c3c(sc2nnn1CCCCOc1ccc(Cl)cc1)CCCC3
  -3.0% | 7.3%
- CCC(Sc1nc2ccccc2c2nc(CCc3c(C)n[nH]c3C)nn12)C(=O)Nc1ccc(OC)cc1 (centres undefined)
  -22.7% | 4.0%
- O=C(Cn1c(=O)c2cccn2c2ccc(F)cc21)N1CCN(c2ccc(F)cc2)CC1
  -17.6% | -12.7%
- Cc1ccc(-n2cnc3cc(C(=O)NCCC4=CCCCC4)ccc32)c(C)c1
  -8.4% | -25.2%
- O=C(CN1C(=O)COc2ccc(S(=O)(=O)N3CCOCC3)cc21)N1CCN(c2ccc(Cl)cc2)CC1
  -32.0% | -6.9%
- COc1ccc(Br)c(C(=O)Nc2cc3c(cc2N2CCCC2)n(C)c(=O)c(=O)n3C)c1
  -13.9% | -7.8%
- COc1ccc(-n2nc3ccc(NC(=O)c4ccc(C#N)cc4F)cc3n2)cc1Cl
  -7.6% | -1.9%
- Cc1ccc(C)c(NC(=O)c2cnc(N3CCCC3)nc2C)c1
  -0.1% | -6.7%
- O=C(NCC1CCN(Cc2ccccc2F)CC1)Nc1ccc(F)c(Cl)c1
  ? | ?
- Cc1cccc(OCC(=O)NCCc2nc3ccccc3[nH]2)c1C
  13.4% | -2.3%
- CCCCc1nn2c(=O)cc(COC(=O)c3ccc(NC(=O)c4ccccc4C)cc3)nc2s1
  ? | ?
- CCCCCn1c(CNC(=O)c2ccc(F)cc2)nc2ccccc21
  ? | -11.6%
- Cn1c(=O)c2c(SCC(=O)NCc3ccco3)nc(-c3cccc(F)c3)nc2n(C)c1=O
  -7.3% | -10.3%
- CCCc1cc(=O)n2[nH]c(NC(=O)c3ccccc3Cl)nc2n1
  -8.7% | -6.1%
- COc1ccc(CCNC(=O)CCCn2c(=O)c3ccccc3n(CC(=O)Nc3c(C)cc(C)cc3C)c2=O)cc1OC
  14.8% | -6.4%
- COc1ccc(CC(=O)Nc2nnc3n2CCS3)cc1OC
  2.4% | -18.9%
- CCOCCCNC(=O)Cn1nc(C)n2c(cc3cc(C)ccc32)c1=O
  -24.1% | 2.0%
- CCN(c1cccc(C)c1)S(=O)(=O)c1nnc(NC(=O)c2cccs2)s1
  -53.8% | -18.2%
- Cc1ccc(-n2ncc(C(=O)NCc3ccc4c(c3)OCO4)c2C2CCN(C(=O)OC(C)(C)C)CC2)cc1C
  ? | ?
- CCOc1ccccc1NC(=O)C(=O)NCCc1sc2nc(-c3ccc(OC)cc3)nn2c1C
  -23.3% | -25.6%
- Cn1c(C(=O)NCc2ccc(Cl)cc2)cc2c(=O)n(C)c3ccccc3c21
  -15.3% | 11.0%

# In another format: results already given.
SMILES,PMP22 txn prim,HTT promoter inh
CCC(Sc1nc2ccccc2c2nc(CCc3c(C)n[nH]c3C)nn12)C(=O)Nc1ccc(OC)cc1 (centres undefined),-22.7%,4.0%
O=C(Cn1c(=O)c2cccn2c2ccc(F)cc21)N1CCN(c2ccc(F)cc2)CC1,-17.6%,-12.7%
Cc1ccc(-n2cnc3cc(C(=O)NCCC4=CCCCC4)ccc32)c(C)c1,-8.4%,-25.2%
O=C(CN1C(=O)COc2ccc(S(=O)(=O)N3CCOCC3)cc21)N1CCN(c2ccc(Cl)cc2)CC1,-32.0%,-6.9%

# Two records picked at random from the list so far:
# Order of results: PMP22 txn prim | HTT promoter inh
- COc1ccc(CC(=O)Nc2nnc3n2CCS3)cc1OC
  2.4% | -18.9%
- O=c1c2c3c(sc2nnn1CCCCOc1ccc(Cl)cc1)CCCC3
  -3.0% | 7.3%

# Further records follow.
# Order of results: PMP22 txn prim | HTT promoter inh
- CCOC(=O)Cn1c(=O)oc2cc(S(=O)(=O)N3CCN(c4ccccc4OC)CC3)ccc21
  -6.6% | -16.2%
- COc1ccc(-c2noc(N3CCC(C(=O)Nc4ccc(C)c(F)c4)CC3)n2)cc1OC
  -28.8% | -19.3%
- CC(C)COc1ccc(C(=O)Nc2scc(-c3ccc(Br)cc3)c2C(=O)OC(C)C)cc1
  -7.7% | -17.6%
- CCCn1ccc2c(OCC(=O)Nc3ccc(C(F)(F)F)cc3)cccc2c1=O
  -5.7% | -9.3%
- COC(=O)c1c(NC(=O)/C(C#N)=C/c2ccc(OC)cc2)sc2c1C(C(=O)OC)CC2 (centres undefined)
  -20.9% | 2.0%
- CCOC(=O)c1c(NC(=O)c2cc(-c3ccccc3OC)on2)sc(C)c1C
  6.1% | -7.8%
- Cc1ccc(-c2ccc(=O)n(CC(=O)Nc3ccc(C)cc3Cl)n2)cc1
  -14.0% | -17.9%
- CCOc1ccccc1CNC(=O)C1=C(C)C(=O)OC12CCN(C(C)=O)CC2
  -11.2% | -0.9%
- COc1cc2c(=O)c(S(=O)(=O)c3ccc(C(C)C)cc3)cn(Cc3ccccc3C)c2cc1OC
  ? | ?
- COc1cccc(NC(=O)c2nnn(Cc3cccc(C(F)(F)F)c3)c2N)c1
  -5.0% | ?
- N#Cc1nc(-c2ccc(COc3ccc(Cl)cc3)o2)oc1N1CCC(C(N)=O)CC1
  ? | ?
- CC(NC(=O)C1CCN(C(=O)N2CCOc3ccccc32)CC1)c1ccccc1 (centres undefined)
  -0.8% | 1.4%
- CC1CCN(S(=O)(=O)c2nnc(NC(=O)c3cccc(F)c3)s2)CC1
  13.4% | -29.2%
- Cc1oc(-c2ccccc2F)nc1CSCC(=O)NCCc1ccccc1
  -26.4% | -29.4%
- COc1cccc(Cc2nc3ccccc3nc2SCC(=O)Nc2cc(OC)ccc2OC)c1
  ? | -17.0%
- COc1ccc(S(=O)(=O)c2cn(CC(=O)Nc3cc(C)ccc3C)c3ccccc3c2=O)cc1
  -2.7% | -19.7%
- COc1ccc(F)cc1S(=O)(=O)NCCc1c(C)[nH]c2c(Cl)cccc12
  40.7% | -22.0%
- CCOC(=O)c1c(NC(=O)c2cc3nc(-c4ccccc4)cc(C(F)(F)F)n3n2)sc2c1CCC(C)C2 (centres undefined)
  ? | -16.2%
- Cc1cc(NC(=O)C2CCCN(S(=O)(=O)c3cccc4nonc34)C2)ccc1Br (centres undefined)
  17.8µM* | -6.9%
- CC(=O)Nc1cc(-c2nc3ccccc3s2)ccc1C
  -3.8% | 63.6%[activator]
- Cc1ccc(Cl)cc1N1CCN(S(=O)(=O)c2ccc(-c3cnc(C4CC4)o3)cc2)CC1
  ? | -16.5%
- CCOCCCNC(=O)C(c1ccc(OC)cc1)N(Cc1ccc2c(c1)OCO2)C(=O)c1ccc(NC(C)=O)cc1 (centres undefined)
  11.3% | -15.4%
- Cc1ccc(NS(=O)(=O)c2c(C(=O)N3CCCCCC3)c(C)n(C)c2C)cc1F
  10.2% | -6.1%
- COCCCNC(=O)CSc1nc2c(sc3ccccc32)c(=O)n1CCc1ccc(OC)c(OC)c1
  -10.3% | -8.3%
- CCCCC(=O)Nc1nnc(S(=O)(=O)N(C)Cc2ccccc2)s1
  20.1% | -13.4%
- COc1ccccc1CNC(=O)C(Cc1ccccc1)NS(=O)(=O)c1ccc2c(c1)CCN2C(C)=O (centres undefined)
  -7.0% | -9.5%
- Cc1ccc2onc(CNC(=O)Nc3ccccc3C#N)c2c1
  -6.2% | -10.3%
- CC(=O)NO
  · | 5.8%
- COc1ccccc1CCNC(=O)C(C)Sc1nc(-c2ccccc2)cc(C(F)(F)F)n1 (centres undefined)
  ? | -3.1%
- Cc1ccc(OCC(=O)OCc2cc(=O)n3nc(C4CC4)sc3n2)cc1
  4.9% | -22.0%
- CCc1nn(Cc2ccc(Cl)cc2)c(=O)c2cc3cc(C)ccc3n12
  -4.3% | -8.3%
- COc1cccc(CNC(=O)Cn2cc3c(n2)-c2c(oc(C(=O)N4CCCC4)c2C)CC3)c1
  -21.4% | ?
- O=c1[nH]c(=O)n([C@H]2C[C@H](O)[C@@H](CO)O2)cc1I
  · | 14.8%
- COc1ccc(NC(=O)CN2CCN(c3ccccc3F)CC2)c(OC)c1
  -1.5% | -12.9%
- CCOC(=O)c1c(Nc2ccc(C)c(C)c2)nnc(-c2ccccc2)c1-c1ccccc1
  ? | -26.2%
- COc1ccc(NC(=O)CSc2cn(CC(=O)N3CCOCC3)c3ccccc23)cc1OC
  -18.0% | -8.0%
- COc1cc(NC(=O)Cn2c(=O)oc3cc(S(=O)(=O)N4CCCCCC4)ccc32)cc(OC)c1
  ? | ?
- Cc1ccc(NC(=O)c2cnc(N3CCCC3)nc2C)cc1F
  1.6% | -17.1%
- CCOc1ccccc1NC(=O)N1CCC(n2c(C)nc3cccnc32)CC1
  -17.2% | 0.0%
- CCN(CC)S(=O)(=O)c1nnc(NC(=O)COc2ccccc2)s1
  -27.5% | -0.2%
- O=C(Cn1c(=O)n(Cc2ccc3c(c2)OCO3)c(=O)c2oc3ccccc3c21)Nc1ccccc1
  ? | -10.7%
- O=C(CCOc1ccccc1)N(Cc1cccnc1)c1nc2c(Cl)cccc2s1
  ? | -24.3%
- Cc1ccc(NC(=O)Cn2cc3c(n2)CCCC3)c(C)c1
  9.5% | -11.4%
- COc1ccc(N2CCN(C(=O)Nc3cccc(C(F)(F)F)c3)CC2)cc1
  6.1% | ?
- N#CC1=C2SCN(C3CCCCC3)CN2C(=O)CC1c1ccc(F)cc1 (centres undefined)
  ? | -11.1%
- Cc1c(Cl)cccc1Nc1ccccc1C(=O)O
  · | -21.0%
- Cc1c(Cl)cccc1NC(=O)CC(c1cccs1)N1Cc2ccccc2C1=O (centres undefined)
  ? | ?
- COC(=O)c1nc2n(n1)C(c1cc(OC)ccc1OC)C=C(c1ccc(Br)cc1)N2 (centres undefined)
  ? | ?
- CCOC(=O)Cn1c(=O)oc2cc(S(=O)(=O)N3CCN(c4ccc(C(C)=O)cc4)CC3)ccc21
  -43.7% | -31.3%
- Cc1cccc(NC(=O)CN(C)S(=O)(=O)c2cnc[nH]2)c1C
  19.0% | -2.8%
- CCCCn1c(CNC(=O)C23CC4CC(CC(C4)C2)C3)nnc1SCC(=O)Nc1ccc(F)cc1
  ? | -31.4%
- CCOc1ccccc1NC(=O)Cn1c(=O)n(CCCCC(=O)NCCCOC)c(=O)c2ccccc21
  -30.3% | -11.4%
- O=C(Cn1c(=O)oc2cc(S(=O)(=O)NCc3ccccc3)ccc21)NCc1ccc(F)cc1
  -94.5% | -27.9%
- Cc1nc2cccnc2n1C1CCN(C(=O)Nc2ccccc2)CC1
  2.7% | -17.0%
- O=C(Nc1ccccc1-c1nc2ccccc2s1)c1ccc(F)cc1
  2.4% | -7.0%
- Cc1ccc(-n2nc(C(=O)N3CCN(c4cc(C)ccc4C)CC3)c3c4ccccc4n(C)c3c2=O)cc1
  -1.1% | -7.5%
- COc1ccc(NC(=O)C2CCCN(S(=O)(=O)c3ccc(Br)s3)C2)cc1 (centres undefined)
  -16.3% | -13.5%
- COc1cc(/C=C/c2nc3cc(Cl)ccc3c(=O)n2-c2ccc(C)cc2C)cc(OC)c1OC
  -30.0% | -24.4%
- Cc1cccc(NC(=O)c2oc3ccccc3c2NC(=O)Cc2coc3c(C)c(C)ccc23)c1
  ? | -7.9%
- CCOC(=O)c1cccc(NC(=O)CCS(=O)(=O)c2ccc(Br)s2)c1
  -22.1% | -15.2%

# Continuation.
# Order of results: PMP22 txn prim | HTT promoter inh
- CCOC(=O)c1noc2ncnc(N3CCN(c4cccc(C(F)(F)F)c4)CC3)c12
  -27.3% | -23.1%
- Cc1ccc2nc(NC(=O)c3ccc(S(=O)(=O)N4CCC(C)CC4)cc3)sc2c1
  ? | -1.0%
- CCOC(=O)c1c(Nc2ccc(OC)cc2)nnc(-c2ccccc2)c1-c1ccccc1
  ? | ?
- Cc1ccc(N2C(=O)CS(=O)(=O)C23C(=O)N(Cc2ccccc2F)c2ccccc23)cc1Cl (centres undefined)
  0.9% | -33.5%
- Cc1ccc2c(c1)N(C(=O)CCC(=O)NCc1cccs1)CCO2
  56.7% | -18.1%
- CCCCN(C)c1nnc(NC(=O)Nc2cccc(C(C)=O)c2)s1
  ? | -1.4%
- COc1ccc(C(=O)NCCn2cc(SCC(=O)Nc3ccc4c(c3)OCCO4)c3ccccc32)cc1OC
  ? | -28.5%
- CSc1ccc(C2CC(=O)Oc3c2c(=O)n(C)c2ccccc32)cc1 (centres undefined)
  -8.2% | -16.4%
